Vaccinia mCherry = qHTS for Stage-Specific Inhibitors of Vaccinia Orthopoxvirus: mCherry Reporter Primary qHTS | Vaccinia virus mCherry reporter infection, fluorescence; about a quarter of the inactives have no number | Potency, µM (titrated, usually from 36.5 µM), for inactives: at the highest dose activity change, negative = inhibition, usual class: inhibitors | 310,000 compounds, 0.63% hits | AID 720579, 2013; active = well fitted inhibition curve with a large enough effect; inconclusive = small, poorly fitted or top-dose-only effect; inactive = no such curve, though single readings can be large or run the other way; tested in A549 cells; further: nearly all actives have a fitted effect of over 35% in size; inactives centre near -10
Vaccinia Venus = qHTS for Stage-Specific Inhibitors of Vaccinia Orthopoxvirus: Venus Reporter Primary qHTS; Vaccinia virus Venus reporter expression, fluorescence; Potency, µM (doses to about 36.5 µM), for the others: at the top dose activity change, negative = inhibition, hits mostly inhibitors; 330,000 compounds, 0.46% hits; active means well fitted inhibition curve with a large enough effect; inconclusive means small, poorly fitted or top-dose-only effect; inactive means no such curve, though single readings can be large or run the other way; tested in A549 cells; further: nearly all actives have a fitted effect of over 30% in size; inactives centre near -10
An asterisk follows results filed as active; i = inactive; ? = inconclusive; · = no result given; & = joins results of further samples; [ ] = remark or other dose. On the % scale 0 is the no-effect control and ±100 the full control effect; potency means the concentration at half of the fitted maximal effect.

SMILES	Vaccinia mCherry	Vaccinia Venus
CC1(C)CC(=O)C2=C(C1)N=c1s/c(=C/c3ccc(F)c(F)c3)c(=O)n1C2c1ccc(F)cc1 (centres undefined)	-8%	3%
CN(Cc1ccccc1)C(=O)COC(=O)c1ccccc1SCC(=O)N1CCCC1	-18%	-6%
COc1ccc(Cl)cc1C(=O)NNC(=S)NC(=O)c1cc(-c2ccccc2)nc2ccccc12	-19%	-15%
CCN(CC)c1ccc(NC(=O)CSc2nc(C3CC3)nc3ccccc23)cc1C	?	-27%
COC(=O)[C@@]12C[C@@H](CC(=O)N3CCC(c4ccccc4)CC3)C(=O)N(Cc3ccco3)C1=CCC(C)(C)C2	-5%	?
CC1=C(C(=O)NCc2ccco2)C2(CCC(C)CC2)OC1=O (centres undefined)	-16%	3%
CCCCOC(=O)Cn1c(-c2ccccc2)nc2ccccc2c1=O	i	-11%
C/C(=N/Nc1ccc(Cl)cc1)c1cnnc(-c2ccccc2)n1	?	-9%
COc1ccc(C)cc1CN(C)c1ccc(S(=O)(=O)N2CCN(C)CC2)cn1	i	-8%
O=C(C[n+]1ccnc2ccccc21)c1ccc(Br)cc1	-9%	-2%
CC(C)NC(=O)NCCCCCCS(C)=O (centres undefined)	i	-3%
O=C(CCC(=O)NCCCc1ccccc1)NCCCc1ccccc1	i	-7%
CCCC(=O)Nc1nnc(CCOC)s1	-2%	-22%
CC(c1ccccc1)N1CC(C(=O)Nc2nccs2)CC1=O (centres undefined)	20%	-2%
O=c1c2ccccc2c(/C=N/c2ncn[nH]2)c(O)n1Cc1ccccc1	?	?
CCCN1CCN(S(=O)(=O)c2ccc3c(c2)OCCO3)CC1	37%&-3%[activator]	-2%&-16%
O=C1O/C(=C/C(=O)N2CCOCC2)c2ccccc21	·	-18%
CCSc1nnc(-c2ccccc2NC(C)=O)c(=O)[nH]1	-19%	-20%
CCN(C(=O)COC(=O)CNC(=O)c1ccc2ccccc2c1)c1c(N)n(Cc2ccccc2)c(=O)[nH]c1=O	i	-13%
Cc1cc(Cl)ccc1NC(=O)CCC(=O)O	i	-4%
CC(C)c1cccc(C(C)C)c1NC(=O)c1ccc(-c2cc(Cl)ccc2Cl)o1	-8%	4%
CCCCNC(=O)C1(C)CCN1C(=O)c1sccc1C (centres undefined)	13%	1%
O=C(COC(=O)c1cc(=O)[nH]c2ccccc12)NC(=O)c1ccccc1	-13%	-6%
CCc1ccc2occ(CC(=O)N(Cc3ccccc3)C3CCS(=O)(=O)C3)c2c1 (centres undefined)	1%	-10%
CCCCCCN1CCN(C2CN(Cc3ccccc3)S(=O)(=O)C2)CC1 (centres undefined)	6%	-2%
COc1ccccc1N1CCN(C2CCCN(C(=O)c3ccsc3)C2)CC1 (centres undefined)	-1%	-5%
O=C(NCC(=O)N(c1ccc2c(c1)OCCO2)C(C(=O)NC1CCCC1)c1ccco1)c1ccco1 (centres undefined)	i	9%
CCn1c(C)nc2cc(C(=O)N/N=C/c3ccc(O)c(O)c3O)ccc21	-12%	1%
CCCCCC(=O)N1C[C@H](n2cc(COC(=O)c3ccccc3)nn2)[C@@H](O)C[C@@H]1c1ccc(OC)cc1	-8%	-17%
CC(C)CNC(=O)COc1ncnc2sccc12	i	-7%
COCOCCn1cc(CN2CCS(=O)(=O)N(Cc3ccc(-c4ccc(Cl)nc4)cc3)C(C)C2=O)nn1 (centres undefined)	-11%	-19%
COC(=O)c1ccc(COc2ccc(F)cc2)o1	-13%	-12%
CC/C(=C(/c1ccccc1)c1ccc(OCC[N+](C)(C)C)cc1)c1ccccc1	-6%	?
COc1ccc2c(c1)OC(O)(C(F)(F)C(F)F)CC2=O (centres undefined)	-10%	-18%
Cc1ccc(NC(=O)CSc2cn[nH]n2)cc1	-16%	5%
Cc1cccc(N/C(=N/S(=O)(=O)c2ccccc2)c2ccccc2)n1	-17%	-9%
Cc1ccccc1NC(=S)NC(=O)/C=C/c1ccco1	-2%	-2%
COc1ccc(C(=O)OCC(=O)Nc2cc(C)on2)cc1F	-11%	-11%
COc1ccc(-c2noc(C3CCCN(C(=O)c4ccc(F)cc4)C3)n2)cc1 (centres undefined)	-3%	-3%
Cc1ccc(CSc2nnc3c(n2)OC2(Nc4ccccc4-3)C(=O)Nc3ccc(F)cc32)cc1 (centres undefined)	i	-1%
COc1cc(NC(=O)N2CCSc3ccccc32)cc(OC)c1OC	-8%	-7%
COc1ccc(OC)c(S(=O)(=O)NCC(c2ccc3c(c2)OCO3)N2CCOCC2)c1 (centres undefined)	-10%	-4%
COc1ccc(-c2ccc3c(c2)S(=O)(=O)c2cccc(C(=O)NCc4cccc(OC(F)(F)F)c4)c2C3=O)cc1OC	?	?
CN(C)S(=O)(=O)Oc1ccccc1C(=O)Nc1ccc(F)cc1	i	-16%
O=C1NCC(COc2cccc3ccccc23)O1 (centres undefined)	-9%	2%
O=C(CSc1nnc2c(n1)[nH]c1ccc(F)cc12)Nc1ccccc1F	i	-16%
CC1CCCCN1C(=O)c1cc(F)c(F)cc1Cl (centres undefined)	-9%	-4%
CNC(=O)c1ccc(-c2nc(CN3CCc4ccccc43)c(C)o2)cc1	-9%	2%
CCCc1cc(=O)[nH]c(SCC(=O)N(C)Cc2ccccc2)n1	-5%	-16%
Cc1ccc(OC(C)C(=O)Nc2ccc(Cl)cn2)c([N+](=O)[O-])n1 (centres undefined)	-11%	-13%
(continued)
SMILES	Vaccinia mCherry	Vaccinia Venus
CC1=C(C(=O)OC(C)(C)C)C(c2cccs2)NC(=O)N1 (centres undefined)	i	-16%
CCN(c1ccccc1)S(=O)(=O)c1ccc(OC)c(NC(=O)c2c(C)noc2C)c1	-14%	-5%
Cc1ccc(Cl)cc1N1CCN(S(=O)(=O)c2ccc3[nH]c(=O)ccc3c2)CC1	-1%	-19%
O=C(CC(SCCO)c1ccc2c(c1)OCO2)c1ccco1 (centres undefined)	-9%	0%
O=C(Nc1ccccc1)C1=C[C@@H](c2coc3ccccc3c2=O)C[C@@H](OCCCCO)O1	37%[activator]	-7%
CCc1nn(C(CC)C(=O)NCc2ccc(OC)c(OC)c2)c(=O)c2cc3oc(C)cc3n12 (centres undefined)	-26%	-21%
O=S(=O)(c1ccc(N2CCOCC2)nc1)N1CCOCC1	-2%	-5%
CC1Cc2ccccc2N1S(=O)(=O)c1cccc(C(=O)NCC(c2ccco2)N2CCCC2)c1 (centres undefined)	?	-25%
CCC1CN(C(=O)N2CCC(C(=O)N3CCN(c4ccc(F)cc4)CC3)CC2)c2ccccc2O1 (centres undefined)	-24%	-29%
CC(C)Oc1ccc(CNC(=O)C2CCN(C(=O)c3sccc3-n3cccc3)CC2)cc1	-8%	-6%
COCCNC(=O)Cc1ccc(NC(=O)N2CCCCc3ccccc32)cc1	-12%	-8%
CCN(CC)C(=O)c1cccc(-c2csc(C(C)(O)c3cccc(OC)c3)n2)c1 (centres undefined)	i	-10%
Cc1cccc(CSc2nc(=O)c3c(n2C)NC(=O)CC3c2cccc(O)c2)c1 (centres undefined)	-8%	-16%
O=C(Cn1cc(COc2c(Br)cc(F)cc2Br)nn1)c1ccc(O)cc1	-6%	-17%
O=C(/C=C/c1ccccc1)Nc1cccc(C(=O)NCCCc2ccccc2)c1	8%	-16%
Cc1cccc(CC(=O)NC2CCS(=O)(=O)C2)c1 (centres undefined)	-2%	12%
CCc1ccc(N(C(=O)CNC(=O)c2ccco2)C(C(=O)NC2CCCC2)c2ccncc2)cc1 (centres undefined)	-12%	-5%
O=C(Cn1c(=O)nc(-c2ccccc2F)c2cc(Cl)ccc21)Nc1ccccc1C(F)(F)F	-21%	-14%
c1ccc(COc2ccc(CN3CCN(c4ccccn4)CC3)cc2)cc1	·	-7%
CCOC(=O)C1CCN(C(=O)CN(c2ccc(OC)cc2)S(=O)(=O)c2c(C)nn(C)c2C)CC1	-17%	-10%
Cc1cccc(NC(=O)C2CCN(c3nc4ccccc4[nH]3)CC2)c1C	-6%	-6%
CC(=O)O[C@H]1C[C@H](O[C@H]2[C@@H](O)C[C@H](O[C@H]3[C@@H](O)C[C@H](O[C@H]4CC[C@@]5(C)[C@H](CC[C@@H]6[C@@H]5C[C@@H](O)[C@]5(C)[C@@H](C7=CC(=O)OC7)CC[C@]65O)C4)O[C@@H]3C)O[C@@H]2C)O[C@H](C)[C@H]1O[C@@H]1O[C@H](CO)[C@@H](O)[C@H](O)[C@H]1O	?	2.5µM*
COc1ccc(OC)c(CCNC(=O)c2cccc(NC(=O)C3=C(C)OCCS3)c2)c1	-1%[7.34 µM]	1%[7.34 µM]
O=C(NCCCN1CCOCC1)c1cc(-c2ccc3c(c2)OCO3)nc2ccccc12	-8%	-19%
CC1CCC2(CC1)NC(=O)N(CC(=O)N1CCOCC1)C2=O (centres undefined)	i	-15%
CCC(=O)Nc1nnc(Cc2ccccc2)s1	-15%	-11%
COc1ccc(Cc2nnc(NC(=O)c3cccs3)s2)cc1OC	-5%	-20%
CCc1ccc(/C=N/NC(=O)c2ccccn2)cc1	i	-26%
CCOC(=O)c1ccc(S(=O)(=O)N2CCN(c3ccccn3)CC2)cc1	-2%	-12%
CCCNC(=O)c1cc(C2CCCCN2C(=O)OCCF)on1 (centres undefined)	0%	-8%
Cc1ccc(-c2csc(NC(=O)c3cccc(N4C(=O)CCC4=O)c3)n2)o1	i	0%
O=C(NC1CCCCCC1)C1CCN(S(=O)(=O)c2cccc3cccnc23)CC1	15%	-6%
Cc1cccc(NC(=O)CSc2nc3nc4c(cc3c(=O)n2-c2ccccc2)CCCC4)c1	10%	-12%
NC(=O)Nn1c(CCC(=O)O)ccc1-c1ccc(Br)cc1	i	-2%
CC1=C(C)CC2(C(=O)NC(=S)NC2=O)C(C)C1 (centres undefined)	i	-16%
CCc1cc(-c2cnnn2Cc2ccc3ccccc3c2)ccc1-c1cn(CC(C)C)nn1	?	?
CC(C)c1ccc(OCc2nc(-c3ccccn3)no2)c(Br)c1	-10%	-7%
COc1cccc(-n2c(SCc3ccccc3C)nc3c([nH]c4ccccc43)c2=O)c1	-5%	-8%
O=C(O)c1cccc(NN=C2c3ccccc3-c3ccccc32)c1	-9%	-6%
O=C(Nc1ccc(-c2noc(-c3cccs3)n2)cc1)c1cccnc1	·	-6%
Cc1noc(/C=C/c2ccco2)c1S(=O)(=O)N1CCC(C(=O)Nc2ccc(Cl)cn2)CC1	-2%	-25%
COc1ccc(-c2coc3cc(OC)cc(O)c3c2=O)cc1	-18%	-15%
Cn1nnnc1SCC(=O)Nc1c(Cl)cccc1Cl	-6%	-3%
COc1cccc(NC(=O)c2ccccc2)c1	-7%	-1%
O=P(CCC(F)(F)F)(CCC(F)(F)F)CCC(F)(F)F	-11%	-11%
CCc1ccccc1NC(=O)CSc1ncc(S(=O)(=O)c2ccccc2)c(N)n1	19%	0%
O=C(c1ccccc1)N1N=C(C(F)(F)F)CC1(O)c1ccc(F)cc1 (centres undefined)	-14%	-10%
COc1ccccc1CN(CC(=O)NCc1ccco1)C(=O)CNS(=O)(=O)c1ccc(C)cc1	·	-27%
COc1cccc(CN(C)C(=O)c2ccc3c(=O)n4c(nc3c2)CCC4)c1OC	-16%	-14%
COc1cccc(CC(NC(C)=O)C(=O)NC2CCN(c3c(Cc4ccccc4)c(C)nc4ncnn34)CC2)c1 (centres undefined)	-16%	-8%

Retrieved one by one from above (2):
SMILES	Vaccinia mCherry	Vaccinia Venus
O=C(C[n+]1ccnc2ccccc21)c1ccc(Br)cc1	-9%	-2%
CCc1nn(C(CC)C(=O)NCc2ccc(OC)c(OC)c2)c(=O)c2cc3oc(C)cc3n12 (centres undefined)	-26%	-21%

Further entries.
SMILES	Vaccinia mCherry	Vaccinia Venus
O=[N+]([O-])c1cc(/C=N/N2CCCCC2)ccc1Cl	-20%	-10%
O=C(CC1SC(N2CCCC2)=NC1=O)Nc1ccc(C(=O)NCCOc2ccccc2F)cc1 (centres undefined)	-8%	-11%
COc1ccc(S(=O)(=O)c2cn(C)c3cc(N4CCCC4)c(F)cc3c2=O)cc1	-2%	-17%
COc1ccc(C(=O)N2CCC2(C)C(=O)NC(C)C)c(OC)c1 (centres undefined)	-5%	-3%
CCc1ccccc1Nc1nn2c(=O)c3ccc(C(=O)NCc4ccccc4Cl)cc3nc2s1	-16%	-17%
O=C(CO/N=C/c1ccc(OC(F)F)cc1)NC1CCCCCC1	i	-12%

Compounds listed so far that contain an aryl thioether with sulfur outside any ring:
SMILES	Vaccinia mCherry	Vaccinia Venus
CN(Cc1ccccc1)C(=O)COC(=O)c1ccccc1SCC(=O)N1CCCC1	-18%	-6%
CCN(CC)c1ccc(NC(=O)CSc2nc(C3CC3)nc3ccccc23)cc1C	?	-27%
CCSc1nnc(-c2ccccc2NC(C)=O)c(=O)[nH]1	-19%	-20%
Cc1ccc(NC(=O)CSc2cn[nH]n2)cc1	-16%	5%
Cc1ccc(CSc2nnc3c(n2)OC2(Nc4ccccc4-3)C(=O)Nc3ccc(F)cc32)cc1 (centres undefined)	i	-1%
O=C(CSc1nnc2c(n1)[nH]c1ccc(F)cc12)Nc1ccccc1F	i	-16%
CCCc1cc(=O)[nH]c(SCC(=O)N(C)Cc2ccccc2)n1	-5%	-16%
Cc1cccc(CSc2nc(=O)c3c(n2C)NC(=O)CC3c2cccc(O)c2)c1 (centres undefined)	-8%	-16%
Cc1cccc(NC(=O)CSc2nc3nc4c(cc3c(=O)n2-c2ccccc2)CCCC4)c1	10%	-12%
COc1cccc(-n2c(SCc3ccccc3C)nc3c([nH]c4ccccc43)c2=O)c1	-5%	-8%
Cn1nnnc1SCC(=O)Nc1c(Cl)cccc1Cl	-6%	-3%
CCc1ccccc1NC(=O)CSc1ncc(S(=O)(=O)c2ccccc2)c(N)n1	19%	0%
